Hedgehog inh – Hedgehog pathway signaling inhibitors, primary screen, luminescence, Shh-LIGHT2 cells, Gli-luciferase. hit rate 2.1% among 22,000. Shh-LIGHT2 Gli-luciferase reporter, 30 h. inhibition, % (no concentration beside the values);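 active means replicate mean of 65% or more; inconclusive means mean lower but half the replicates past it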;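 further: pathway switched on by Shh-conditioned medium diluted 1 in 25 in low serum; 100 nL library stock added to about 40 µL; 0% = median of neutral wells and 100% = positive control level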
PD-1 reversal – activators reversing PD-1 mediated T-cell inhibition, primary screen, luminescence, primary human CD4 T cells, PD-L1 beads | CellTiter-Glo 96 h | activation, % (concentration not given with the values) | 29,000 tested, under 10 active;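 active means replicate mean of 50% or more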;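 further: 0% = median vehicle wells and 100% = positive control; 100 nL library stock added to about 50 µL; numbers are from one replicate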
YB-1 expr inh – inhibitors of YB-1 gene expression, primary screen, cell-based, fluorescence | U2OS, qRT-PCR YB-1 vs CDIP delta delta Cp, 16 h; stronger effect = higher value; zero = DMSO, each unit about twofold | AID 434959, 2010 | hit rate 0.37% among 30,000 | delta delta Cp (YB-1 minus CDIP) (test concentration not listed);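 active means delta delta Cp rounded down to an integer at or above 3, about 3 SD of DMSO wells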;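 further: higher means less YB-1 transcript or more CDIP transcript relative to DMSO; stock transfer was 100 nL into about 100 µL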
MITF inh – inhibitors of MITF, primary screen, MITF inhibitor project, cell-based, luminescence | AID 2240, 2010 | TRPM1 promoter luciferase, 24 h | hit rate 0.28% among 37,000 | inhibition, % (no concentration beside the values);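 active means most replicates at 85% or more, or half of them and the mean; inconclusive means half reach 85% but not the mean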;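 further: human melanocyte line stably carrying TRPM1 promoter luciferase reporter; 0% = vehicle wells and 100% = a positive control; the first replicate is given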
The depositor's hits bear a star; ? = inconclusive; · = not tested or not shown. This is a subset, so the mix of outcomes need not match the whole.

Fields: Hedgehog inh	PD-1 reversal	YB-1 expr inh	MITF inh
CC(C)NC(=O)N(C)C[C@@H]1Oc2ccc(NS(=O)(=O)c3ccccc3)cc2CC(=O)N([C@H](C)CO)C[C@H]1C
  -18	-0.2	-0.018	2
COc1ccc(-n2c(-c3ccc(Cl)cc3)n[nH]c2=S)cc1
  5	-0.2	0.24	-17
C[C@H]1CN([C@@H](C)CO)C(=O)c2cccc(NC(=O)c3ccncc3)c2O[C@H]1CN(C)CC1CC1
  -37	·	0.33	-7
CC(C)c1ccc2oc(-c3ccc(Cl)c(NC(=O)COc4ccc([N+](=O)[O-])cc4)c3)nc2c1
  ·	-6.3	·	19
C[C@@H]1CN([C@@H](C)CO)C(=O)c2cccc(NC(=O)c3nc4ccccc4s3)c2O[C@@H]1CN(C)C(=O)Nc1ccc2c(c1)OCO2
  -46	-1.2	-0.42	-16
COc1ccc(S(=O)(=O)N(C)C[C@H]2Oc3c(NS(=O)(=O)c4c(C)noc4C)cccc3C(=O)N([C@@H](C)CO)C[C@H]2C)cc1
  -43	·	-0.33	-3
Cc1ccc(S(=O)(=O)Nc2ccc3c(c2)C(=O)N([C@H](C)CO)C[C@H](C)[C@H](CN(C)C(=O)CCCN(C)C)OCCCC[C@@H](C)O3)cc1
  -19	·	-0.36	5
C[C@H]1CN([C@@H](C)CO)C(=O)c2cccc(NC(=O)NC3CCCCC3)c2O[C@H]1CN(C)Cc1ccc(C(=O)Nc2ccccc2N)cc1
  ·	-0.6	-0.14	15
C[C@@H]1CN([C@H](C)CO)C(=O)Cc2cc(NC(=O)Cn3cnnn3)ccc2O[C@H]1CN(C)Cc1ccc(Cl)c(Cl)c1
  -43	1.1	-0.13	-16
Cc1cccc(NC(=O)C(=O)NCCCO)c1
  ·	3.8	·	-55

Another view of some results above:
CC(C)c1ccc2oc(-c3ccc(Cl)c(NC(=O)COc4ccc([N+](=O)[O-])cc4)c3)nc2c1
  Hedgehog inh: ·
  PD-1 reversal: -6.3
  YB-1 expr inh: ·
  MITF inh: 19
Cc1cccc(NC(=O)C(=O)NCCCO)c1
  Hedgehog inh: ·
  PD-1 reversal: 3.8
  YB-1 expr inh: ·
  MITF inh: -55
C[C@H]1CN([C@@H](C)CO)C(=O)c2cccc(NC(=O)c3ccncc3)c2O[C@H]1CN(C)CC1CC1
  Hedgehog inh: -37
  PD-1 reversal: ·
  YB-1 expr inh: 0.33
  MITF inh: -7

(cont.)
Fields: Hedgehog inh	PD-1 reversal	YB-1 expr inh	MITF inh
COc1ccc(S(=O)(=O)Nc2cccc3c2O[C@H](CN(C)C(=O)Nc2ccc(C(F)(F)F)cc2)[C@H](C)CN([C@H](C)CO)C3=O)cc1
  -23	1.6	-0.25	-10
CC(C)NC(=O)N(C)C[C@@H]1Oc2c(NS(=O)(=O)c3ccc(Cl)cc3)cccc2C(=O)N([C@@H](C)CO)C[C@H]1C
  3	-0.1	0.13	-8
CCOC(=O)c1cnc2cc(C(F)(F)F)ccc2c1N1CCCCCC1
  25	-3.3	-0.57	5
CCn1c(SCC(=O)Nc2sc3c(c2C#N)CCC(C(C)(C)C)C3)nnc1-c1cccc(C)c1 (stereo not drawn)
  ·	1.2	·	4
C[C@@H]1CN([C@H](C)CO)C(=O)Cc2cc(NS(=O)(=O)c3ccccc3)ccc2O[C@@H]1CN(C)CC1CCCCC1
  30	-1.8	0.34	-6
C[C@@H]1CN([C@H](C)CO)C(=O)Cc2cc(NC(=O)CCN3CCOCC3)ccc2O[C@H]1CN(C)Cc1ccc(Oc2ccccc2)cc1
  40	-0.7	0.16	-10
Cc1ccc(S(=O)(=O)Nc2ccc3c(c2)C(=O)N([C@@H](C)CO)C[C@H](C)[C@H](CN(C)C(=O)Nc2ccc4c(c2)OCO4)O3)cc1
  ·	3.4	0.22	10
Cc1ccc(Cl)cc1NC(=O)CC1NCCNC1=O (stereo not drawn)
  ·	0.7	·	-3
C[C@H](CO)N1C[C@H](C)[C@H](CN(C)S(C)(=O)=O)Oc2ccc(NC(=O)CCC(F)(F)F)cc2CC1=O
  5	·	0.27	4
C[C@H]1CN([C@@H](C)CO)C(=O)Cc2cc(NS(=O)(=O)c3cn(C)cn3)ccc2O[C@@H]1CN(C)C(=O)Nc1ccc(F)cc1
  ·	0.0	-0.46	-9

New compounds follow:
Fields: Hedgehog inh	PD-1 reversal	YB-1 expr inh	MITF inh
Cc1cc(=O)oc2c(O)c(O)ccc12
  ?	·	0.0068	-2
Cc1cccc(-n2c(SCC(=O)N3CCOCC3)nnc2-c2ccccc2)c1
  ·	-0.7	·	-9
C[C@H]1CN([C@@H](C)CO)C(=O)c2cc(NC(=O)CCCN(C)C)ccc2O[C@@H]1CN(C)Cc1ccc(Oc2ccccc2)cc1
  ·	·	-0.1	6
C[C@@H]1CN([C@H](C)CO)C(=O)c2cccc(NC(=O)C3CCCCC3)c2O[C@@H]1CN(C)C(=O)Nc1ccc(F)cc1
  11	0.1	0.088	-3
Cc1ncsc1CCSc1nc2ccccc2c(=O)n1C
  ·	0.4	·	27
CC(C)=CCCC1(C)C=Cc2c(ccc3c2[nH]c2cc(O)c(C)cc23)O1 (stereo not drawn)
  -2	2.4	2.7	-15
C[C@@H]1CN([C@@H](C)CO)C(=O)c2cc(NC(=O)CCCCCC(=O)Nc3ccccc3N)ccc2O[C@H]1CN(C)Cc1ccc(C(F)(F)F)cc1
  ·	2.2	-0.23	13
COc1ccc(S(=O)(=O)N2CCN(c3nc4ccccc4nc3-n3nc(C)cc3C)CC2)cc1
  ·	-1.4	·	1
C[C@H](CO)N1C[C@H](C)[C@H](CN(C)CC2CC2)Oc2ccc(NC(=O)Cc3cn(C)c4ccccc34)cc2C1=O
  -18	-0.2	-0.093	8
O=C(O)c1cc(N=Cc2ccccc2O)ccc1O
  -6	0.0	0.054	-2

The listing continues:
Fields: Hedgehog inh	PD-1 reversal	YB-1 expr inh	MITF inh
Cc1nn(C)c(-c2n[nH]c(=S)n2-c2ccc(CC(=O)O)cc2)c1Br
  ·	0.8	·	-1
Cc1cc(C)c2nc(-c3ccc(F)cc3)cc(C(=O)NCc3ccco3)c2c1
  ·	-10	·	5
C[C@H](CO)N1C[C@H](C)[C@@H](CN(C)Cc2ccc(C(=O)Nc3ccccc3N)cc2)Oc2c(NC(=O)C3CC3)cccc2C1=O
  ·	0.9	-0.009	13
CC(C)NC(=O)Nc1ccc2c(c1)C(=O)N([C@@H](C)CO)C[C@@H](C)[C@H](CN(C)Cc1ccc3c(c1)OCO3)O2
  ·	2.6	-0.092	0
CC(C)(C)C(=O)Nc1ccccc1C(=O)N1CCN(Cc2ccccc2)CC1
  -11	0.2	0.011	2
C[C@H]1CN([C@@H](C)CO)C(=O)Cc2cc(NS(C)(=O)=O)ccc2O[C@H]1CN(C)Cc1ccc(Cl)c(Cl)c1
  27	·	0.28	-15
CS(=O)(=O)N(CC(=O)Nc1cccc([N+](=O)[O-])c1)c1cccc(F)c1
  ·	2.6	·	-23
CN(C)/C=C/C(=O)c1sc(SCc2ccc(Cl)cc2)c2c1CC(C)(C)CC2=O
  12	-1.5	-0.41	-1
Cc1noc(C)c1S(=O)(=O)Nc1ccc2c(c1)C(=O)N([C@@H](C)CO)C[C@H](C)[C@@H](CN(C)Cc1ccncc1)O2
  -34	2.0	0.55	-6
C[C@@H]1CN([C@H](C)CO)C(=O)c2cc(NC(=O)CCC(F)(F)F)ccc2O[C@H]1CN(C)Cc1ccncc1
  ·	2.3	-0.12	-13

Additional results.
Fields: Hedgehog inh	PD-1 reversal	YB-1 expr inh	MITF inh
COc1ccc(S(=O)(=O)Nc2cccc3c2O[C@@H](CN(C)CC2CC2)[C@@H](C)CN([C@@H](C)CO)C3=O)cc1
  -13	2.6	-0.47	-8
C=C(C)C(=O)O[C@@H]1C2=C(C)C(=O)OC2(O)CC23OC2CC[C@H](C)[C@@]13C (stereo partly drawn)
  5	0.4	0.83	-1
C[C@H]1CN([C@@H](C)CO)C(=O)c2cc(NC(=O)Nc3cccc4ccccc34)ccc2O[C@@H]1CN(C)C(=O)Nc1ccc(F)cc1
  -18	-2.3	0.15	7
C=C(C)C(O)Cc1cc(CCc2cc(O)cc(O)c2)cc(O)c1OC (stereo not drawn)
  -3	1.5	0.057	-18
CC(C)NC(=O)N(C)C[C@@H]1Oc2ccc(NC(=O)c3ccncc3)cc2CC(=O)N([C@H](C)CO)C[C@H]1C
  -39	0.7	-0.43	-1
COc1ccc(N(C(C)C(=O)Nc2cccc(Br)c2)S(C)(=O)=O)cc1 (stereo not drawn)
  ·	-0.5	·	-2
C[C@H]1CN([C@@H](C)CO)C(=O)Cc2cc(NS(=O)(=O)c3cccs3)ccc2O[C@H]1CN(C)Cc1ccc(Oc2ccccc2)cc1
  -5	1.3	0.15	-3
COc1ccc(S(=O)(=O)Nc2ccc3c(c2)CC(=O)N([C@H](C)CO)C[C@@H](C)[C@H](CN(C)S(=O)(=O)c2ccc(C)cc2)O3)cc1
  9	·	-0.0001	6
C[C@H]1CN([C@@H](C)CO)C(=O)Cc2cc(NC(=O)Cc3ccccc3)ccc2O[C@H]1CN(C)Cc1ccc(C(=O)O)cc1
  -8	-0.3	0.15	-1
COc1ccc(CCn2c(C)cc(O)cc2=O)cc1OC
  ·	0.5	0.081	-3

The results go on.
Structure	Hedgehog inh	PD-1 reversal	YB-1 expr inh	MITF inh
N#Cc1c(N)[nH]c(=S)c(C(N)=O)c1-c1cccc(Br)c1	106*	-66	-0.27	5
CNC(=O)N(Cc1cccnc1)Cc1ccccc1Cl	-1	-0.9	0.61	-3
CC(C)OC(=O)c1cccc(C(=O)OC(C)C)n1	·	-1.1	-0.69	0
C[C@@H]1CN([C@@H](C)CO)C(=O)c2cccc(NS(=O)(=O)c3ccc(F)cc3)c2O[C@@H]1CN(C)Cc1ccc(Cl)c(Cl)c1	35	-1.6	0.25	1
COC(=O)c1c(NC(=O)c2ccccc2N(C)S(=O)(=O)c2ccccc2)sc2c1CCCC2	·	-2.6	·	48
Cc1cc(C(=O)Nc2cccc3c2O[C@H](CN(C)C(=O)Nc2cccc4ccccc24)[C@H](C)CN([C@H](C)CO)C3=O)n(C)n1	20	1.1	0.3	-7
CN1C=C(c2ccccc2)N(c2ccccc2)C1	-38	1.1	-0.032	-1
CC(C)c1ccc(NC(=O)CSc2n[nH]c(-c3ccc(Cl)cc3)n2)cc1	·	-5.5	·	-15
CCOc1ccccc1NC(=O)c1ccsc1NC(=O)c1ccoc1C	·	-0.1	·	-7
C[C@H]1CN([C@@H](C)CO)C(=O)Cc2cc(NC(=O)CCN3CCOCC3)ccc2O[C@@H]1CN(C)Cc1ccc2c(c1)OCO2	-35	-1.5	-0.096	6
Cc1nc(SCC(=O)c2cccc([N+](=O)[O-])c2)nc2c1CCCC2	·	-1.6	·	-42
C[C@@H]1CN([C@H](C)CO)C(=O)Cc2cc(NC(=O)CCCCCC(=O)Nc3ccccc3N)ccc2O[C@H]1CN(C)S(=O)(=O)c1ccc(F)cc1	·	-0.6	-0.25	8
COc1ccc(CCNC(=O)CSc2nc3ccccc3nc2N2CCCC2)cc1OC	-39	-0.1	-0.97	5
C[C@@H]1CN([C@H](C)CO)C(=O)c2cc(NC(=O)CCN3CCOCC3)ccc2O[C@H]1CN(C)C(=O)Nc1cccc2ccccc12	·	-2.2	-0.37	5
Cc1noc(C)c1NC(=O)N(C)C[C@@H]1Oc2ccc(NC(=O)Nc3ccc4c(c3)OCO4)cc2CC(=O)N([C@@H](C)CO)C[C@@H]1C	·	1.0	-0.77	-3
O=C(Nc1ccc(F)cc1F)c1cccnc1Sc1cccs1	·	-2.0	-0.039	-24
C[C@H](CO)N1C[C@H](C)[C@H](CN(C)Cc2ccc(C(=O)Nc3ccccc3N)cc2)Oc2ccc(NC(=O)NC3CCCCC3)cc2C1=O	·	-0.2	0.19	-23
Cc1noc(C)c1NC(=O)N(C)C[C@@H]1Oc2c(NC(=O)Nc3cccc4ccccc34)cccc2C(=O)N([C@@H](C)CO)C[C@@H]1C	-31	·	-0.16	-5
C[C@H]1CN([C@@H](C)CO)C(=O)Cc2cc(NC(=O)CCC(F)(F)F)ccc2O[C@H]1CN(C)S(C)(=O)=O	·	0.6	-0.11	-2
C[C@@H]1CN([C@@H](C)CO)C(=O)c2cccc(NC(=O)c3ccc(-c4nccs4)cc3)c2O[C@@H]1CN(C)C(=O)Nc1ccc(C(F)(F)F)cc1	-2	-3.6	-0.13	15

Continuation.
Structure	Hedgehog inh	PD-1 reversal	YB-1 expr inh	MITF inh
C=CCn1c(SCC(=O)c2ccc(CC)cc2)nnc1-c1cccc(OC)c1	1	0.5	0.047	-7
COc1ccc(-n2nc3ccc(NC(=O)c4ccc(-c5ccccc5)cc4)cc3n2)cc1	-47	0.6	-0.76	-24
O=C1S/C(=C/c2ccccc2Cl)C(=O)N1c1ccccc1	·	-1.3	1.9	-58
C=C[C@@]1(C)CCC2=C([C@H]1OC(C)=O)[C@H](OC(C)=O)CC1[C@](C)(C(=O)OC)CC[C@H](OC(C)=O)[C@]21C (stereo partly drawn)	-12	0.9	0.059	3

Assay outcomes from PubChem.
